LASV entry inh – Lassa virus entry inhibition | Lassa virus pseudotype entry inhibition, cell reporter; control for the full effect not named in the record | Potency, µM (titrated, usually from 37.9 µM), for inactives: at the highest dose activity change, negative = inhibition, most hits filed as inhibitors | 1.2% of 300,000 active; active means well fitted inhibition curve with a large enough effect; inconclusive means small, poorly fitted or top-dose-only effect, or effect the other way; inactive means flat fitted curve, though single readings scatter; tested in HEK293 cells; note: % is set by controls: 0 for no effect and ±100 for the full control effect; nearly all actives have a fitted effect of over 50% in size; luciferase read-out
MARV entry inh – inhibitors of Marburg virus binding or cell entry | Marburg virus pseudotyped entry inhibition, cell reporter; control for the full effect not named in the record; about a third of the inactives were read at about 46 µM | Potency, µM (series often up to 37.8 µM), for inactives: at the top dose activity change, negative = inhibition, usual class: inhibitors | 1.8% of 300,000 active; active = well fitted inhibition curve with a large enough effect; inconclusive = small, poorly fitted or top-dose-only effect, or effect the other way; inactive = flat fitted curve, though single readings scatter; tested in HEK293 cells; about a fifth of its hits are not listed in these tables; note: % is set by controls: 0 for no effect and ±100 for the full control effect; luciferase read-out
NS1 inh – blocks influenza NS1 protein function | S. cerevisiae slowed by influenza A NS1, growth recovery by OD600 | Potency, µM (doses to about 46.1 µM), for inactives: at the highest dose activity, positive = more growth | 0.4% of 270,000 active | AID 2326; active means well fitted rising curve with a large enough effect; inconclusive means small, poorly fitted or top-dose-only effect; inactive means no such curve, though single readings can be large or run the other way; note: nearly all actives have a fitted effect of over 50% in size
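Read-out: OD600 growth recovery of NS1-expressing budding yeast. Cells grown overnight at 30C in -URA glucose medium, washed, resuspended and diluted 1:100 in 2% galactose assay medium, pH 6.0. Same strain lacking NS1 served as positive control.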
Cruzain inh noDet – inhibitors of Trypanosoma cruzi cruzain without detergent. P25779. purified cruzain, Z-FR-AMC fluorescence, no detergent. Potency, µM, for the others: max response, negative = inhibition, most hits filed as inhibitors. 2.3% of 200,000 active. AID 1476;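 note: plate controls were enzyme without inhibitor for no effect and buffer without enzyme for full effect; nearly all actives have a fitted effect of over 40% in size; top concentration of the series not given in the record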
Target sequence (P25779 123-467 limits assumed): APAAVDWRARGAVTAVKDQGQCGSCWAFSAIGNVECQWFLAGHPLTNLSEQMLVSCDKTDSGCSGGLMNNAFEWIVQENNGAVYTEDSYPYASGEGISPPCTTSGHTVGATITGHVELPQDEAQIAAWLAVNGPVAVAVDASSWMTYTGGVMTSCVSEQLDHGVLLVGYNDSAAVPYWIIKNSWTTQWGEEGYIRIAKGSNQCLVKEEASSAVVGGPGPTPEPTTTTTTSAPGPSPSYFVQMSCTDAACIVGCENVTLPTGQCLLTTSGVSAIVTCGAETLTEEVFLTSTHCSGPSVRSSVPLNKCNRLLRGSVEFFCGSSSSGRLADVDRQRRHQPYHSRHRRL
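Detergent-free condition (0.00005% Triton X-100) in acetate buffer pH 5.5 with DTT. 1.5 nM enzyme and compound were pre-mixed 15 min, then 2 uM Z-FR-AMC substrate added; reaction progress from fluorescence change between first and third reads (60 s).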
SARS PLpro yeast – blocks SARS-CoV papain-like protease in a yeast assay; S. cerevisiae expressing SARS-CoV PLpro, growth rescue; control for the full effect not named in the record; Potency, µM (titrated, usually from 32.9 µM), inactives show at the top dose activity, positive = growth rescue; 0.19% of 330,000 active; active means well fitted rising curve with a large enough effect; inconclusive means small, poorly fitted or top-dose-only effect; inactive means no such curve, though single readings can be large or run the other way; note: 0% is about no effect; nearly all actives have a fitted effect of over 55% in size; growth read by luminescence after 48 h
Cruzain inh Det – inhibitors of Trypanosoma cruzi cruzain with detergent; P25779; purified cruzain, Z-FR-AMC fluorescence, 0.01% Triton; Potency, µM, for inactives: max response, negative = inhibition, actives largely listed as inhibitors; 0.43% of 200,000 active; AID 1478;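 note: plate controls were neutral wells for no effect and buffer without enzyme for full effect; nearly all actives have a fitted effect of over 40% in size; top concentration of the series not given in the record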
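Purified cruzain (1.5 nM final) was preincubated with compounds for 15 min at room temperature in 100 mM sodium acetate pH 5.5, 5 mM DTT, 0.01% Triton X-100. Reaction started with 2 uM Z-FR-AMC; AMC fluorescence change over 60 s gave activity.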
StopGo reporter – lowers the luciferase signal of an FMDV 2A StopGo reporter; 1.2% of 410,000 active; AID 1159524; Potency, µM (doses to about 57.9 µM), for the others: at the top dose signal change, negative = less light; human cells with a luciferase reporter of 2A StopGo recoding; control for the full effect not named in the record; active = well fitted falling curve with a large enough effect; inconclusive = small, poorly fitted or top-dose-only effect; inactive = no such curve, though single readings can be large or run the other way; tested in HEK293T cells; note: % is set by controls: 0 for no effect and ±100 for the full control effect; nearly all actives have a fitted effect of over 45% in size; luciferase light after 4 h
RE007 growth inh – less growth of the S. pombe RE007 Vpr strain; S. pombe RE007 Vpr strain, BacTiter-Glo ATP luminescence, 24 h; control for the full effect not named in the record; Potency, µM (top dose mostly 92.2 µM), for the others: at the top dose activity change, negative = less growth; 0.21% of 360,000 active; AID 651644; active = well fitted falling curve with a large enough effect; inconclusive = small, poorly fitted or top-dose-only effect; inactive = no such curve, though single readings can be large or run the other way;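 note: % is set by controls: 0 for no effect and ±100 for the full control effect; nearly all actives have a fitted effect of over 50% in size; the assay follows cell death caused by Vpr and the record does not say whether a fall means rescue or toxicity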
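Fission yeast strain RE007, carrying one chromosomally integrated HIV-1 vpr copy, was seeded at OD 0.01 in PMG+AL medium with 23 nL pinned compound. After 24 h at 30 °C and 99% humidity, viability was read by BacTiter-Glo luminescence.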
* = called active by the depositor; ? = inconclusive; . = no result given; [ ] = dose if it differs, or a comment. Unless noted, calls come from the whole dose curve; as a rule, active = well fitted curve in the direction sought with a large enough effect; inconclusive = small, poorly fitted or top-dose-only effect, or another doubt; inactive = no such curve, though single readings can be large; an effect the other way counts as inactive or inconclusive. Potency is the fitted concentration of half-maximal effect.

SMILES	LASV entry inh	MARV entry inh	NS1 inh	Cruzain inh noDet	SARS PLpro yeast	Cruzain inh Det	StopGo reporter	RE007 growth inh
Cc1ccc(S(=O)(=O)NCc2ccc(/C=C(/C#N)C(=O)NCc3ccccc3)o2)cc1	-4%	?	-8%	-13%	4%	-5.9%	-5%	26%
c1ccc(C2=Nn3c(nnc3-c3n[nH]c4c3CCC4)SC2)cc1	-39%	2%	-14%	-3%	-1%	-2.5%	24%	11%
c1ccc2nc(-c3nc4ccccc4[nH]3)ccc2c1	?	?	-21%	-10%	-16%	-5.5%	-69%	?
CC(C)CCCN1C(Nc2ccccc2)=NC[C@@H]1C	.	.	-5%	.	-3%	.	-2%	6%
[N-]=[N+]=NCCN1CCN(CCc2ccccc2)CCC1=O	.	.	-5%	.	-8%	.	2%	5%
CCCCNc1sc(S(=O)(=O)CCC)nc1S(=O)(=O)c1ccc(C)cc1	-8%[46.1 µM]	?	.	4%	.	-7.4%	-3%	.
COCCn1c(SCC(=O)N2CCCCC2)nc2c([nH]c3ccccc32)c1=O	.	.	9%	.	3%	.	-13%	-6%
Cc1ccc(CNC(=O)CCCN2C(=O)COc3ccc(C)cc32)cc1	-14%[46.1 µM]	.	.	7%	.	0.4%	-17%	.
Cc1cccc(N2C(=O)C3C4CC(=O)C(c5ccccc54)C3C2=O)c1C (configuration not stated)	-4%	?	0%	.	-1%	.	-23%	10%
CN1CCN2c3ccc(N)cc3CC3(C(=O)NC(=O)NC3=O)C2C1 (configuration not stated)	5%[46.1 µM]	0%[46.1 µM]	3%	.	-1%	.	7%	1%
CSc1nc2ncc(-c3ccsc3)c(N)n2n1	30%	5%[46.1 µM]	.	.	0%	.	34%[activator]	-10%
COC(=O)[C@H](C)NC(=O)Nc1ccc(C)c(C)c1	11%	17%	2%	8%	0%	-2.1%	11%	-6%
CCN(CC)CCCN1CC(=O)N2[C@@H](Cc3c([nH]c4ccccc34)C2(C)C)C1=O	-3%[46.1 µM]	-15%[46.1 µM]	1%	.	-1%	.	0%	-8%
COc1ccc(-c2nc3cnccn3c2Nc2ccc(C)cc2)cc1	.	.	-18%	3%	-18%	-11%	-24%	38%
Cc1ccnc2nc(C(=O)OCC(=O)N(CC(C)C)CC(C)C)nn12	-2%[46.1 µM]	0%[46.1 µM]	.	.	6%	.	13%	-1%
COc1cccc(N2CC(NC(=O)/C=C\c3ccc(OC)c(OC)c3)CC2=O)c1 (configuration not stated)	-12%[46.1 µM]	.	.	-8%	.	-4.4%	-22%	.
N#C/C(=C(\O)CCl)c1nnc2n1CCCCC2	13%	17%	14%	0%	15%	4.2%	0%	21%
CN(C)CCN(Cc1ccccc1)C(=O)C1CCN(c2ncnc3c2nc2n3CCCCC2)CC1	.	.	-1%	.	0%	.	-21%	-3%
Cc1ccccc1Cn1c(=O)n(CCC(=O)NCc2ccc3c(c2)OCO3)c(=O)c2ccccc21	-17%	?	0%	?	-5%	7.3%	-7%	16%
COc1cc(C(=O)N2C[C@@H]3CCC[C@H]2C3)ccc1OC1CCN(C(C)=O)CC1	-7%	30%	2%	.	.	.	19%	-12%
COc1cc(OC)cc(C(=O)NNC(=O)C2CCCC2)c1	24%	-20%[46.1 µM]	4%	.	0%	.	12%	-1%
COc1ccc(CCN=C(N)NS(=O)(=O)c2cc(F)ccc2OC)cc1	9%[46.1 µM]	2%[46.1 µM]	17%	.	-1%	.	-4%	-18%
COc1ccc(C)cc1NC(=O)CN1c2ccccc2S(=O)(=O)c2ccccc21	9%[46.1 µM]	.	.	-22%	.	0.0%	-25%	.
O=C(Cc1ccc(Cl)cc1)Nc1ccc(Br)cn1	.	.	-3%	.	-6%	.	11%	-11%
Cc1cc(C)c(OCCCON2C(=O)CCC2=O)c(Br)c1	?	24%[46.1 µM]	-7%	.	0%	.	1%	16%

10 structures already listed, ordered by molecular weight, low to high:
SMILES	LASV entry inh	MARV entry inh	NS1 inh	Cruzain inh noDet	SARS PLpro yeast	Cruzain inh Det	StopGo reporter	RE007 growth inh
CC(C)CCCN1C(Nc2ccccc2)=NC[C@@H]1C	.	.	-5%	.	-3%	.	-2%	6%
CSc1nc2ncc(-c3ccsc3)c(N)n2n1	30%	5%[46.1 µM]	.	.	0%	.	34%[activator]	-10%
COc1cc(OC)cc(C(=O)NNC(=O)C2CCCC2)c1	24%	-20%[46.1 µM]	4%	.	0%	.	12%	-1%
c1ccc(C2=Nn3c(nnc3-c3n[nH]c4c3CCC4)SC2)cc1	-39%	2%	-14%	-3%	-1%	-2.5%	24%	11%
O=C(Cc1ccc(Cl)cc1)Nc1ccc(Br)cn1	.	.	-3%	.	-6%	.	11%	-11%
Cc1ccc(CNC(=O)CCCN2C(=O)COc3ccc(C)cc32)cc1	-14%[46.1 µM]	.	.	7%	.	0.4%	-17%	.
COc1cccc(N2CC(NC(=O)/C=C\c3ccc(OC)c(OC)c3)CC2=O)c1 (configuration not stated)	-12%[46.1 µM]	.	.	-8%	.	-4.4%	-22%	.
CCN(CC)CCCN1CC(=O)N2[C@@H](Cc3c([nH]c4ccccc34)C2(C)C)C1=O	-3%[46.1 µM]	-15%[46.1 µM]	1%	.	-1%	.	0%	-8%
COCCn1c(SCC(=O)N2CCCCC2)nc2c([nH]c3ccccc32)c1=O	.	.	9%	.	3%	.	-13%	-6%
Cc1ccccc1Cn1c(=O)n(CCC(=O)NCc2ccc3c(c2)OCO3)c(=O)c2ccccc21	-17%	?	0%	?	-5%	7.3%	-7%	16%

New compounds follow:
SMILES	LASV entry inh	MARV entry inh	NS1 inh	Cruzain inh noDet	SARS PLpro yeast	Cruzain inh Det	StopGo reporter	RE007 growth inh
NC(=Nc1ccccc1)N(c1ccccc1)c1ccccc1	-5%[46.1 µM]	?	.	.	.	.	-12%	13%
CCCn1c(SCC(=O)NNC(=O)c2ccccc2)nnc1-c1cccnc1	.	.	?	.	3%	.	-20%	8%
O=C(N/N=C/c1c(O)n(-c2ccc(Cl)cn2)c(=O)c2ccccc12)c1ccncc1	6%	21%	8%	-10%	13µM*	-17%	-2%	8%
CCCN1C(=O)c2cc(C(=O)Nc3cccc(C(C)=O)c3)ccc2C1Nc1cccc(C(C)=O)c1 (configuration not stated)	.	.	-4%	.	-3%	.	?	20%
C=C(C)c1cccc(C(C)(C)NC(=O)Nc2ncccn2)c1	-10%	-15%	-15%	5%	-2%	4.2%	.	8%
O=C(COCc1nc2ccccc2c(=O)[nH]1)NCC1CCCCC1	-3%	7%	2%	-12%	12%	-3.5%	.	-9%
Cc1cccc(OCCSCc2nc3ccccc3[nH]2)c1	?	?	-95%	-23%	-15%	?	?	-14%
COc1ccccc1NC(=O)Nc1cc(NC(=O)Nc2ccccc2OC)c(C)nc1C	?	?	29%	8%	0%	1.0%	0%	-11%
Cc1cc(OCC(=O)NCc2cccnc2)c2c(C)c(Cc3ccccc3)c(=O)oc2c1	?	-3%[46.1 µM]	-1%	.	6%	.	18%	-18%
COc1ccc(Cl)cc1NC(=O)CCCN1C(=O)CCC1=O	33%[14.3 µM]	1%	-4%	-3%	8%	-9.3%	1%	-15%
CCOC(=O)c1ccc(NC(=S)N(CCCN2CCCC2)Cc2cccs2)cc1	.	?	0%	.	4%	.	41%[activator]	-11%
O=C(CCCC(=O)N(CC(=O)NC1CCCCC1)c1ccccc1F)Nc1ccccn1	-13%[46.1 µM]	?	2%	.	1%	.	31%[activator]	0%
COc1ccc(S(=O)(=O)N2CCN(CC(=O)NC3CCCC3)CC2)cc1	-1%	4%[46.1 µM]	-3%	.	14%	.	-13%	1%
COc1ccc2c(Sc3ccc(Cl)cc3)c(C(=O)N3CCCCC3)[nH]c2c1	-22%[46.1 µM]	?	.	?	.	-8.4%	70%[activator]	.
Cc1cc(C(=O)CN2C(=O)C(=O)N(CC(C)C)C2=O)c(C)n1-c1ccccc1F	.	3%[46.1 µM]	4%	.	2%	.	17%	2%
CC(C)C12CN3CC(C(C)C)(CN(C1)C3c1ccccc1)C2O (configuration not stated)	27%	-29%	0%	-5%	-5%	0.8%	.	5%
CCOC(=O)Cc1nnc(Nc2ccc(C)cc2C)c2ccccc12	-16%	5%	12%	-1%	20%	-0.7%	?	-4%
O=C(OCC(=O)N1CCCCC1)c1c[nH]c(=O)[nH]c1=O	-5%	6%	2%	8%	25%	2.6%	15%	-1%
Cc1ccc(C(=O)N/C(=C/c2ccc(F)cc2)C(=O)NCc2ccncc2)cc1	-6%	-9%	-6%	3%	9%	-0.3%	5%	-4%
CCOC(=O)C1(Cc2ccccc2)CCCN(C(=O)c2cnn(CC)c2)C1 (configuration not stated)	10%[46.1 µM]	?	-3%	.	0%	.	23%	-10%
COc1ccc2[nH]c3c(c2c1)CCN1C(=O)C(CC(=O)NCCCN(C)C)C[C@H](C(=O)N(C(C)C)C(C)C)[C@@]31C (some centres not stated)	.	-1%	.	.	18%	.	-9%	6%
COc1ccc(CCN2CCCC(CN(C)Cc3cc(OC)ccc3OC)C2)cc1 (configuration not stated)	.	.	0%	.	-1%	.	-8%	-2%
Cc1ccc(C(c2c(C)nn(-c3ccccc3)c2N)c2c(C)nn(-c3ccccc3)c2N)cc1	-4%	?	8%	9%	4%	?	0%	?

High-throughput results deposited in PubChem by National Center for Advancing Translational Sciences (NCATS).
